# Sfp PPTase inh = blocks B. subtilis Sfp PPTase activity; Biochemical Sfp PPTase activity, qHTS; Potency, µM, without a hit: max response, negative = inhibition, most hits filed as inhibitors; 310,000 compounds, 3.5% hits; active = well fitted inhibition curve with a large enough effect; inconclusive = small, poorly fitted or top-dose-only effect, or another doubt; inactive = no such curve, though single readings can be large or run the other way;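 note: the enzyme is Sfp with the accession as filed and its product quenches rhodamine fluorescence; potency is the fitted concentration of half-maximal effect; 0% = enzyme reaction without inhibitor and -100% = no enzyme wells; top concentration of the series not given in the record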
#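 After 15 min at room temperature with compound, 15 nM Sfp received 5 uM rhodamine-CoA plus 12.5 uM BHQ-2-ybbR (50 mM Hepes pH 7.6, 10 mM MgCl2). Rate came from the fluorescence difference over 30 min, ex 525/em 598 nm.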
# ClpP mod = qHTS Assay for Activators of ClpP | Potency, µM (top dose mostly 57.5 µM), inactives show at the top dose activity change, negative = active | ATP-dependent Clp protease proteolytic subunit (Bacillus subtilis (strain 168)), P80244 | 340,000 compounds, 1.9% hits | purified B. subtilis ClpP, FRET peptide cleavage, 20 min; active = well fitted falling curve with a large enough effect; inconclusive = small, poorly fitted or top-dose-only effect; inactive = no such curve, though single readings can be large or run the other way; note: potency is the fitted concentration of half-maximal effect; the source files actives as falling curves though it sought activators and does not explain the sign; nearly all actives have a fitted effect of over 65% in size; many hits overshoot -100%
# Target sequence (P80244 whole entry, looked up): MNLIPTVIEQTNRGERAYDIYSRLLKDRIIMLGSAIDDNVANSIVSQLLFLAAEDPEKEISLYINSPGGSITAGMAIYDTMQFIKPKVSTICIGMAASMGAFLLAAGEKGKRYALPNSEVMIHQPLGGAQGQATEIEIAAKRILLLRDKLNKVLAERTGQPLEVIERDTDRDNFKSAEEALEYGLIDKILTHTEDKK
#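 FRET quenching reversal measured ClpP activation: 10 microg/mL B. subtilis ClpP at pH 8 with the FRET-FV decapeptide, read at 430 nm after 320 nm excitation. The 20-min minus 0-min signal was scaled between DMSO/no-enzyme wells and ADEP (5.8 microM final).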
# gsp antagonist = antagonists of gsp mutant (McCune-Albright syndrome); 340,000 compounds, 0.4% hits; Potency, µM (series often up to 76.9 µM), for inactives: at the top dose activity change, negative = inhibition, most hits filed as inhibitors; gsp-mutant cells, cAMP HTRF, 30 min; control for the full effect not named in the record; active = falling curve of any shape with a large fitted effect; inconclusive = falling curve, mostly with a smaller effect; inactive = flat or rising curve; cell line not stated here;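 note: intracellular cAMP measured with PDE inhibitor Ro 20-1724 present during compound exposure; potency is the fitted concentration of half-maximal effect; % is set by controls: 0 for no effect and ±100 for the full control effect; nearly all actives have a fitted effect of over 65% in size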
#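 Cells in G418 medium, seeded 16-24 h, 37C; buffer exchange to DPBS + 1 mM CaCl2, 0.5 mM MgCl2, 0.05% BSA; cpds in DMSO + […] (300 uM stock), 30 min 37C; HTRF cAMP detection.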
# CtBP-E1A blk = CtBP/E1A binding inhibition; AlphaScreen GST-E1A/His-CtBP binding, 1536-well; active compounds read low; control for the full effect not named in the record; activity change, % (no concentration beside the values); 340,000 compounds, 0.49% hits; AID 651724; in the data active means activity change below about -65%; inconclusive means about -30% to -65%; inactive means above about -30%; note: % is set by controls: 0 for no effect and ±100 for the full control effect
#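 Homogeneous bead-based format: GST-tagged E1A captured on glutathione donor beads, His-tagged CtBP on nickel acceptor beads; compounds precede bead addition by 2 h at 37 °C.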
# Menin MLL FP FL = menin-MLL binding inhibition, fluorescein peptide; Fluorescence polarization, fluorescein-MLL peptide displacement from menin; 290,000 tested, under 10 active; FP activity change, % at 61.4 µM; inconclusive = falling polarisation curve, or a change in total fluorescence; inactive = total fluorescence flat and polarisation flat or rising; no compound was filed as active; the % refers to the polarisation; negative = inhibition;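 note: % of control where 0% means no effect; inhibitors lower the polarisation; unlabelled MLL peptide was the positive control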
# gsp agonist = activates gsp, the McCune-Albright syndrome mutation. gsp mutant cells, cAMP HTRF, 30 min; control for the full effect not named in the record. Potency, µM (doses to about 76.9 µM), inactives show at the highest dose activation (cAMP increase), most hits filed as activators. 340,000 compounds, 0.13% hits. AID 624287; active = well fitted activation curve with a large enough effect; inconclusive = small, poorly fitted or top-dose-only effect, or another doubt; inactive = no such curve, though single readings can be large or run the other way; cell line not stated here;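 note: phosphodiesterase inhibitor Ro 20-1724 added with compounds to block cAMP breakdown; potency is the fitted concentration of half-maximal effect; nearly all actives have a fitted effect of over 60% in size; about a fifth of the inactives were tested at one dose only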
#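 Cells stably selected in G418 were plated at 2000/well, grown 16-24 hr, then given compounds in DMSO with the PDE inhibitor […] (300 uM solution added) for 30 min at 37C; cAMP was read by HTRF.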
# TRPV1 potentiator = enhances activation of the human vanilloid receptor TRPV1; Q8NER1; TRPV1-expressing cells, Fluo-8 calcium influx, capsaicin EC20 potentiation; host cell line not named in the record; control for the full effect not named in the record; potentiation, % at 8.33 µM; 320,000 compounds, 0.02% hits; AID 540277; active means potentiation above 80%; inconclusive means 30% to 80%; inactive means below 30%; note: 0% is about no effect
# Target sequence (Q8NER1 whole entry, looked up): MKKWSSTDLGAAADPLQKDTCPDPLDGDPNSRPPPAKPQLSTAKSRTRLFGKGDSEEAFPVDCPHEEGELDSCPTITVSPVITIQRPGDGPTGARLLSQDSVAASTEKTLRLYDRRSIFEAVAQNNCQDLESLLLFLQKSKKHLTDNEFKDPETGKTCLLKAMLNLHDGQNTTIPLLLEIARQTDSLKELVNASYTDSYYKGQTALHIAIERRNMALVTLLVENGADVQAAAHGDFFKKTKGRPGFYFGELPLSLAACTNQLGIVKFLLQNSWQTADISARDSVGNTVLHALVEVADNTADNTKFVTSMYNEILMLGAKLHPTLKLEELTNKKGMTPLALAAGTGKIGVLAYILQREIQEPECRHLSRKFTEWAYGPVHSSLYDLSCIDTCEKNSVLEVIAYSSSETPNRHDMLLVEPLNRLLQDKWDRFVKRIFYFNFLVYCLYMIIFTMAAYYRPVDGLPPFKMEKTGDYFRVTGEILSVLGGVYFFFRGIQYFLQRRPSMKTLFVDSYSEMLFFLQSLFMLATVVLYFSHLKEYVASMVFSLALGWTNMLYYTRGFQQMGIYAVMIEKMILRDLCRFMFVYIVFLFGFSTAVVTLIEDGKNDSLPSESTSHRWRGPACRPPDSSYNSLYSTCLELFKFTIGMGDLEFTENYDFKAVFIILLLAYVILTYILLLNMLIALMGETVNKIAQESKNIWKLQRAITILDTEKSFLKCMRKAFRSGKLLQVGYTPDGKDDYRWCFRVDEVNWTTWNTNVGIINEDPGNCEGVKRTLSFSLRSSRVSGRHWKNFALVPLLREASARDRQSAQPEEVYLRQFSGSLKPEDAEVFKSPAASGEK
#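 Cells expressing TRPV1 were dye-loaded with Fluo-8 and read kinetically: 10 s baseline, 3 min after compound (agonist portion), then 2 min after EC20 capsaicin (allosteric enhancer portion). Calcium-bound dye fluorescence at 480/520 nm.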
# * hit, by the source's call; ? = inconclusive; · = no result given; [ ] = dose if it differs, or a comment.
SMILES	Sfp PPTase inh	ClpP mod	gsp antagonist	CtBP-E1A blk	Menin MLL FP FL	gsp agonist	TRPV1 potentiator
CC(C)C(NC=C1C(=O)OC(C)(C)OC1=O)C(=O)O (centres undefined)	-16%	-2.8%	10%	-1	1.0	-1%	-2
CCOc1ccc(/C=C/C2=Cc3c(sc(NC(=O)CSc4n[nH]c(N)n4)c3C#N)C(C)(C)C2)cc1	40µM*	-3.0%	-22%	-15	?	-11%	15
CSc1nccc(Oc2ccccc2Cl)n1	·	·	10%	26	·	26%[15.4 µM]	·
Cc1cc(C(=O)N2CCN(c3ccccc3)CC2)c(C)o1	0%	-4.3%	-9%	-13	?	-3%	2
CCOC(=O)c1c(C)[nH]c(C(=O)COc2ccc3c(c2)OCO3)c1C	10%	-25%	-26%	2	1.4	-25%	4
O=C(N/N=C/c1ccccn1)c1ccc(Br)cc1	?	-1.7%	6%	-65*	2.0	-3%	-7
COc1cccc(CN(C)C(=O)c2cc(S(=O)(=O)N3CCCC3)ccc2C)c1OC	·	-2.5%	-7%	·	·	-12%	·
CCn1c(=O)cc(SCC(=O)N2CCN(c3ccccc3OC)CC2)c2ccccc21	-11%	-16%	-31%	-9	1.3	?	14
COCCNC(=O)c1cc2c3ccccc3n(C)c2s1	-9%	?	-8%	0	3.3	-1%	-12
Cc1[nH]ncc1-c1nc2ccccc2[nH]1	12%	·	3%	-3	1.4	35%	13
Cc1cc(C)c(S(=O)(=O)N2CCN(C(=O)c3cc4ccccc4oc3=O)CC2)c(C)c1	·	-9.4%	-8%	-6	·	-42%[inhibitor]	9
COc1ccc(NC(=O)CSc2nnnn2C2CCCCC2)cc1	13%	·	5%	0	-3.9	-28%	1
CCN1C[C@@H]2[C@@H]3C(=O)N(C)C(=O)[C@@H]3[C@](C)(C1=O)N2C(=O)c1ccc(Cl)cc1	·	-0.4%	8%	11	·	-20%	·
Cc1ccc(C(=O)c2cncc(Br)c2)cc1	-1%	-0.6%	11%	6	3.1	12%	-2
CCOC(=O)C1=C(CNCc2ccccc2Cl)NC(=O)NC1c1ccc2c(c1)OCO2 (centres undefined)	3%	0.9%	-1%	-10	-5.9	1%	11
COC(=O)CSC(C)C(=O)Nc1nnc(C(C)C)s1 (centres undefined)	9%	0.7%	73%[activator]	·	1.7	-2%	22
Cc1ccc(C(=O)NC2CCCCCC2)cc1N1CCCC1=O	-17%	-2.0%	-1%	3	1.0	12%	20
CCOC(=O)c1cc(NC(=O)c2cccs2)ccc1N1CCOCC1	10%	·	-8%	0	0.5	5%[15.4 µM]	-38
CCOc1ccc(NC(=O)CSC(N)=O)cc1	-11%	0.5%	-9%	11	-0.5	-53%[inhibitor]	-19
O=C(c1cc(COc2cccc(C(F)(F)F)c2)on1)N1CCCC1	·	0.7%	·	4	·	?	·
Cc1ccc(CN(C(=O)CNC(=O)c2cccs2)C(C(=O)NCC2CCCO2)c2ccccc2)cc1 (centres undefined)	13%	0.5%	-8%	11	-0.5	-32%[inhibitor]	4
FC(F)Sc1ccc(NC(=S)NCC2CCCCC2)cc1	13%	1.3%	?	5	-6.4	23%	-5
CCOC(=O)NNC(=O)c1[nH]c2ccc(Br)cc2c1-c1ccccc1	2%	-12%	-11%	·	-2.2	27%	19
CC(=O)N1c2ccc(S(=O)(=O)N3CCC(C(=O)NC4CCC(C)CC4)CC3)cc2CC1C (centres undefined)	10%	0.7%	-10%	5	1.7	6%	1
COc1ccc(NC(=O)c2ccco2)cc1NC(=O)c1ccc(C)cc1	-6%	-1.8%	-22%	-4	0.5	-7%	-14
CCN(CC)c1ccc(-c2n[nH]c(=S)n2-c2ccccc2)cc1	-12%	-2.1%	-20%	-10	2.6	-3%[15.4 µM]	3
COCCNC(=O)c1ccc2c(c1)ncn2-c1ccc(C)c(Cl)c1	6%	·	-12%	0	-1.0	-34%[inhibitor]	-4
CCCCCNC(=O)c1ccc(NS(=O)(=O)c2ccc3[nH]c(=O)[nH]c3c2)cc1	-3%	-4.8%	6%	-7	·	-7%[15.4 µM]	12
COc1cccc(C(C(=O)NC2CCCC2)N(C(=O)c2ccco2)c2cccc(C(C)=O)c2)c1OC (centres undefined)	3%	3.4%	-1%	-2	0.7	17%[15.4 µM]	0
C[C@@H]1CNC(=O)c2c(C(=O)N[C@@H](Cc3c[nH]c4ccccc34)C(=O)OC(C)(C)C)ncn21	·	2.5%	·	-8	·	?	·
COc1cc(N)c(Cl)cc1C(=O)OCC(=O)N1CCc2ccccc21	·	-1.6%	-6%	0	·	2%	-2
CCOC(=O)c1c(NC(=O)CSc2c[nH]c3ccccc23)sc2c1CCC2	5%	-11%	-26%	-7	-2.7	-63%[inhibitor]	-13
CCC(c1nnnn1C1CCCC1)N1CCN(c2ccccc2)CC1 (centres undefined)	9%	-1.7%	2%	3	3.8	6%	5
CCOc1cc2[nH]c(=S)n(CCC(=O)NC3CCCCC3)c(=O)c2cc1OCC	·	-3.2%	·	-17	·	-42%[inhibitor]	·
Cc1cc([N+](=O)[O-])ccc1NC(=O)c1sc2ncn(CC(=O)N3CCOCC3)c(=O)c2c1C	-3%	-3.8%	-3%	-15	-4.8	?	-1
Cc1ccc(NC(=S)N/N=C/c2ccc(Cl)c([N+](=O)[O-])c2)cc1	20%	1.1%	?	-11	2.4	-53%[inhibitor]	-9
CCOc1c(Cl)cc(CNc2ccc(N3CCCC3)cc2)cc1OC	79µM*	-1.9%	5%	-30	1.5	7%[15.4 µM]	-11
O=C(Cc1ccc([N+](=O)[O-])cc1)Nc1nccs1	-7%	0.6%	14%	1	-0.9	-16%	4
CC1(C)N=C(N)N=C(N)N1c1ccccc1	19%	1.0%	11%	-1	-0.4	-3%	2
C[C@@]12CC(=O)NC1N(C(=O)c1cccc(C(F)(F)F)c1)C(c1ccccc1OC(=O)c1cccc(C(F)(F)F)c1)C2 (some centres undefined)	4%	-0.7%	9%	8	-1.6	-8%[15.4 µM]	-7
COc1cccc(C(=O)C2CCCN(Cc3cn[nH]c3C3CCCCC3)C2)c1 (centres undefined)	6%	·	0%	-7	4.5	28%[15.4 µM]	-5
CCc1ccccc1NC(=O)C/C(C)=N/NC(=O)COc1ccccc1C	9%	·	-2%	9	·	1%	1
COCCn1c(SCC(=O)NCc2ccc(OC)c(OC)c2)nc2ccccc21	0%	·	-18%	16	-2.0	-30%[15.4 µM]	-10
CCOCCCNC(=O)C1CCC(CNS(=O)(=O)c2ccc(OC)cc2)CC1 (centres undefined)	3%	·	-3%	1	5.3	-12%[15.4 µM]	2
Cc1nn(CC(O)Cn2c3c(c4ccccc42)CCN(C)C3=O)c(C)c1Br (centres undefined)	-6%	-18%	-6%	2	0.9	2%	-12
COc1cccc(-n2ccn(CC(=O)NCCc3ccccc3)c(=O)c2=O)c1	8%	-4.1%	-10%	-5	-1.7	-27%	4
COc1ccc(NC(=O)CSc2nc3ccccc3c(=O)n2Cc2cccs2)c(OC)c1	-1%	·	·	·	3.7	·	2
Cc1ccc(/C=C2\SC(=S)N(CCCC(=O)Nc3cccc(C(=O)O)c3)C2=O)cc1	14%	-17%	-13%	-1	·	?	-11
O=C(CNC(=O)c1ccco1)OCC(=O)c1ccccc1	9%	25µM*	2%	3	5.3	-59%	10
CC(C)Cc1ccc(C(=O)NCCOc2ccccc2)o1	3%	·	-4%	11	0.6	0%	-4
Cn1cc(CNCc2cn[nH]c2-c2ccc(F)cc2)c(-c2ccc3c(c2)OCCO3)n1	8%	0.0%	-4%	-3	-1.8	-24%	5
CCOC(=O)C1(CCOC)CCN(Cc2cc3ccccc3s2)CC1	-5%	0.1%	8%	3	1.6	-8%[15.4 µM]	-21
COc1ccc(N2CCN(C(=O)CN3C(=O)NC4(CCCCC4C)C3=O)CC2)cc1 (centres undefined)	·	·	7%	-1	·	6%	·
O=C(CCn1ccnc1)Nc1nc2ccccc2[nH]1	-17%	-0.1%	18%	11	0.4	6%[15.4 µM]	-2
O=C(N[C@H]1C/C=C\C[C@@H](CC(=O)N(CCO)Cc2ccccc2)C(=O)N2CCC[C@H]2COC1=O)OCC1c2ccccc2-c2ccccc21	·	-9.2%	-2%	-8	·	·	·
CC1=CCC2C(=O)N(c3nc4ccccc4n3C)C(=O)C2C1 (centres undefined)	16%	1.2%	0%	5	2.4	-4%	4
N#Cc1cccc(S(=O)(=O)NCCOc2ccccc2F)c1	·	0.6%	1%	·	·	15%	28
Cc1cc(C(=O)NC2CC(C)(C)Cc3c2cnn3-c2cccc(F)c2)nn1C (centres undefined)	5%	-3.5%	-1%	5	·	1%[15.4 µM]	-11
O=C(CSc1nnc(Cc2ccccc2)n1-c1cccc(Cl)c1)N1CCOCC1	14%	1.2%	4%	5	1.7	-41%[inhibitor]	-14
CCCCn1c(-c2ccc(F)c(F)c2)nc2cc3[nH]c(=O)c(C(C)C)nc3cc21	-11%	3.8%	-33%	-5	8.3	27%	2

# Remaining list, next part:
SMILES	Sfp PPTase inh	ClpP mod	gsp antagonist	CtBP-E1A blk	Menin MLL FP FL	gsp agonist	TRPV1 potentiator
CSCCC(NC(=O)c1ccco1)C(=O)N1CCN(C(c2ccccc2)c2ccccc2)CC1 (centres undefined)	·	·	-23%	-21	·	-13%[15.4 µM]	-1
CCc1ccc2nc(N(CCN(C)C)C(=O)/C=C/c3cccs3)sc2c1	-3%	0.3%	9%	·	-0.3	13%	-20
Cc1noc(C)c1COC(=O)[C@@H](NC(=O)c1ccccc1)C(C)C	-9%	1.5%	7%	1	2.8	-12%	2
COc1ccc(Nc2cc(NCCCO)c([N+](=O)[O-])c3nonc23)cc1	8%	-0.9%	9%	?	0.7	?	10
O=C1CN(C(=O)c2cccs2)c2ccccc2N1	1%	-3.0%	18%	2	8.8	-46%[inhibitor]	?
CCCCCOC(=O)c1[nH]c2c(c1C)C(=O)CC(c1ccco1)C2 (centres undefined)	?	-13%	5%	-10	0.6	28%	-4

# Source: PubChem (National Center for Advancing Translational Sciences (NCATS))
